miR-21 reporter: raises the signal of a miR-21 reporter | 340,000 tested, under 10 active | Potency, µM (top dose mostly 38.3 µM), for the others: at the highest dose reporter change, positive = more light | HeLa miR-21 FLuc reporter, luciferase, 48 h; active = well fitted rising curve with a large enough effect; inconclusive = small, poorly fitted or top-dose-only effect; inactive = no such curve, though single readings can be large or run the other way;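 further: % of control where 0% means no effect; miR-21 action dims this reporter so a rising signal means less miR-21 action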
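Compounds were titrated across several concentrations (up to approximately 40 uM) and incubated 48 hours with HeLa miR-21-FLuc reporter cells (miR-21 target sequence downstream of FLuc, endogenous miR-21). Readout was firefly luciferase luminescence after lytic detection reagent.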
Rango dissoc inh: prevents RanGTP from dissociating the Rango-importin beta complex; Potency, µM (series often up to 46.1 µM), inactives show top-dose activity change, negative = inhibition; Biochemical FRET Rango-importin beta, RanGTP-induced dissociation; 340,000 compounds, 0.071% hits; active means falling FRET ratio curve, often poorly fitted, with flat reads before Ran was added; inconclusive means other falling curves, or compound fluorescence or quenching; inactive means flat or rising ratio curve;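 further: potency means the concentration at half of the fitted maximal effect; % of control where 0% means no effect; nearly all actives have a fitted effect of over 45% in size; -100% = wells without RanGTP and RCC1; the record marks most hits as doubtful in a second field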
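Rango/importin beta premix (0.1/0.25 uM final), PBS + 1 mM DTT + 0.02% Tween-20 + 0.1% BSA; cpd 5 min RT; FRET pre-read; + RanGTP-RCC1 (0.6 uM Ran, 2 mM GTP, 0.2 uM RCC1); 45 min RT; FRET post-read, ex 430, em 486/530 nm.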
Rango-impB inh: inhibitors of Rango-importin beta complex formation; 340,000 compounds, 0.031% hits; Potency, µM (highest dose often 92.2 µM), without a hit: at the highest dose inhibition of complex formation; AID 540263; Rango CFP/YFP FRET sensor + importin beta, 45 min; Q14974; active = rising FRET ratio curve, often small or poorly fitted; inconclusive = mostly compound fluorescence or quenching in the first reads; inactive = flat curves in all reads;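 further: potency means the concentration at half of the fitted maximal effect; 0% = DMSO wells and 100% = buffer wells lacking importin beta; nearly all actives have a fitted effect of over 15% in size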
Target sequence (Q14974 whole entry, looked up): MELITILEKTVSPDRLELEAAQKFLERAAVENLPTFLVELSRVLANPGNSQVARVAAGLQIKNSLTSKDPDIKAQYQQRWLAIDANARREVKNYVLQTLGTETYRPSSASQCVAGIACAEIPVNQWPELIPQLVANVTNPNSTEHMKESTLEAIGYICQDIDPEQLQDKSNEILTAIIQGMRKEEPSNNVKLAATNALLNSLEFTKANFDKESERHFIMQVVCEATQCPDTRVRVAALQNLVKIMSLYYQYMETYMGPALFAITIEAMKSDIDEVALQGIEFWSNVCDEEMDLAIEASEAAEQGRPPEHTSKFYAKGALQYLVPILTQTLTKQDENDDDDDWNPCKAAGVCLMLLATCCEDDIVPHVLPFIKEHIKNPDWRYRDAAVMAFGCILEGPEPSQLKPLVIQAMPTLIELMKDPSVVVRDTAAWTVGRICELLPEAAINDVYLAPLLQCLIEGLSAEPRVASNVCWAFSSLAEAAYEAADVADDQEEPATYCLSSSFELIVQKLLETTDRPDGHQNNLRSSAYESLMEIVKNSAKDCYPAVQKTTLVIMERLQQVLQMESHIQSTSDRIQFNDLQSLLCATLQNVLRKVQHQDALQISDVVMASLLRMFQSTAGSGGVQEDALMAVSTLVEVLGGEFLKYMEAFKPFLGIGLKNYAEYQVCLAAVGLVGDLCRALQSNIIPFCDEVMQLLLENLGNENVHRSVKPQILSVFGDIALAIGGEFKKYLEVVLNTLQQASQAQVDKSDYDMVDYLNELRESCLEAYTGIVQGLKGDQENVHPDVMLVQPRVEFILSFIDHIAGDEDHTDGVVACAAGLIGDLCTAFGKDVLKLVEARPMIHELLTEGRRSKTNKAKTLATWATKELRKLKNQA
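Inhibition scored from the CFP 486 nm/YFP 530 nm FRET ratio 45 min after adding 0.125 microM importin beta to 50 nM Rango biosensor preincubated 5 min with compound (room temperature, PBS with DTT, Tween-20, BSA). No-importin wells as positive control.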
GLA inh pH 4.5: inhibitors of human alpha-galactosidase A at pH 4.5; 230,000 tested, under 10 active; P06280; purified enzyme, 4-MU-alpha-Gal fluorescence, pH 4.5; activity change, negative = inhibition, % at 105 µM; inconclusive = small, poorly fitted or top-dose-only inhibition, or a rising curve; inactive = flat fitted curve, though single readings scatter; no compound was filed as active;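 further: 0% = full activity with enzyme and -100% = basal without enzyme; dose as in the result columns while the protocol names 77 µM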
* hit, by the source's call; ? = inconclusive; · = not tested or not shown; & = joins results of further samples; [ ] = remark or other dose. A portion of the library. The share of hits here may be higher or lower than overall.

Order of results: miR-21 reporter	Rango dissoc inh	Rango-impB inh	GLA inh pH 4.5
- CCOC(=O)c1cccc(NC(=O)C2CCCN(c3nnc(N4CCCC4=O)s3)C2)c1 (centres undefined)
    4%	?	1.1%	·
- O=C(c1sc2cc(F)ccc2c1Cl)N1CCN(c2cccc(Cl)c2)CC1
    -7%	25%	2.1%	-2
- COc1ccc(OC)c(S(=O)(=O)NCC(c2cccs2)N2CCc3ccccc3C2)c1 (centres undefined)
    ·	-4%	-0.1%	·
- COc1ccc(CN2CCN(Cc3ccco3)CC2)cc1OC
    -2%	-18%	6.1%	·
- O=C(CCCN1C(=O)c2ccccc2C1=O)NCCCn1ccnc1
    -2%	-4%	1.1%	2
- COc1ccccc1C(c1c(N)n(C)c(=O)n(C)c1=O)C(C)[N+](=O)[O-] (centres undefined)
    6%	-8%	3.8%	2
- O=C(NCCc1nc2ccccc2[nH]1)/C(=C/c1ccco1)NC(=O)c1ccc(Br)o1
    -5%	10%	-0.4%	-2
- O=C(CCC1CCCN(Cc2cccc3c2OCO3)C1)NCc1ccc(F)c(F)c1 (centres undefined)
    -4%	-16%	-2.8%	-3
- O=C(NCC(c1ccco1)N1CCc2ccccc2C1)C(=O)Nc1ccccc1 (centres undefined)
    ·	11%	0.1%	·
- O=C(CCc1nc2ccccc2s1)OCC(=O)c1ccccc1
    -38%	-6%	-0.5%	-14
- Cc1ccccc1C(=O)NCC(=O)N1CCN(c2ccccn2)CC1
    ·	0%	-0.2%	·
- O=C(Nc1nnc(C(F)(F)F)s1)c1cccnc1
    -33%	-11%	-1.1%	-4
- COc1cc(C(=O)NCC(c2ccccc2)N(C)C)ccc1OCc1c(C)noc1C (centres undefined)
    ·	-10%	3.2%	·
- COc1ccc(NC(=O)Cn2nnc(C(=O)NCc3ccco3)c2N)c(OC)c1
    -7%&9%	1%	-3.2%	-11
- Cc1c(C)c([N+](=O)[O-])c(C)c(C)c1N
    ·	6%	-0.2%	·
- O=C(N/N=C/c1ccccn1)c1sc2ccccc2c1Cl
    2%	-15%	8.9%	1
- COc1cccc(CNS(=O)(=O)/C=C/c2ccc(OC)c(OC)c2)c1
    -11%	18%	-0.8%	1
- CC(=O)c1cccc(NC(=O)C2=CC(c3ccc4c(c3)OCO4)=NS(=O)(=O)N2C)c1
    -4%&-13%	21%	?	·
- Cc1ccc(N2C(=O)c3cccc4c([N+](=O)[O-])ccc(c34)C2=O)c2cccnc12
    -1%	?	?	4
- CCCc1nc2ccc(NC(=O)NCCC(=O)OCC)cc2c(=O)n1Cc1ccc(Cl)cc1
    -10%	7%	0.1%	-2
- CC(Oc1cccc(Cl)c1)C(=O)NC1CC(C)(C)NC(C)(C)C1 (centres undefined)
    -2%	-1%	-0.1%	·
- CSc1ccc(/C=N/N2CCN(Cc3ccc(Cl)cc3)CC2)cc1
    8%	16%	-0.2%	-1
- S=C(Nc1ccc(Cl)cc1)N1CCOCC1
    ·	12%	3.2%	·
- CCOC(=O)C1CCN(c2nc3ccccc3nc2C(C#N)C(=O)OCCOC)CC1 (centres undefined)
    -2%	?	?	0
- CC1CCCCC12NC(=O)N(CC(=O)OCc1cccc(F)c1)C2=O (centres undefined)
    ·	0%	-0.9%	·
- Cn1cc(S(=O)(=O)N2CCCC2)cc1C(=O)NCc1ccc(Cl)cc1
    8%	6%	-4.2%	·
- COC(=O)c1ccc(COc2ccccc2/C=C/C(=O)c2ccc(OCC(=O)O)cc2)cc1
    -8%	1%	3.2%	·
- CCOC(=O)C(NC(C)=O)(Nc1cccc(F)c1)C(F)(F)F (centres undefined)
    -1%	-1%	-0.5%	0
- O=c1oc2c(-c3cccc(F)c3)cc(O)cc2s1
    5%	5%	0.9%	13
- Cc1ccn2cc(-c3cc4ccccc4oc3=O)nc2c1
    -44%	-8%	3.8%	-6
- Cc1ccc(C)c(NC(=O)CC2Oc3ccccc3NC2=O)c1 (centres undefined)
    2%	23%	-0.5%	·
- COc1ccc(C(=O)Cn2c(=N)n(C)c3ccccc32)cc1
    -63%	-14%	-0.1%	1
- CCOCCCn1cc(C(=O)c2cc(Br)ccc2O)cc(C#N)c1=O
    17%	-6%	?	2
- CCOC(=O)CCCCNCc1ccccc1
    -16%	15%	-0.4%	3
- Clc1ccc(SCCOCCN2CCc3ccccc3C2)cc1
    0%	-3%	1.0%	-9
- CCOc1cc(C)nc(N2CCCC(C(=O)NCc3ccccc3F)C2)n1 (centres undefined)
    0%	2%	-3.5%	0
- CC(C)(C)n1cnc2cc(NC(=O)c3ccco3)ccc21
    -44%	-8%	2.8%	·
- CC1(C(=O)Nc2ccccc2)Cc2ccccc2C(=O)O1 (centres undefined)
    -7%	4%	0.3%	6
- N#Cc1ccc(-c2cccnc2)nc1SCc1ccc(Cl)cc1Cl
    -10%	-13%	-0.7%	-9
- CC(C)(C)c1ncc(S(=O)(=O)c2ccc(C(F)(F)F)cn2)c(N)n1
    -1%	0%	-0.4%	-7
- Cn1cccc1Cc1nnc(SCC(=O)NCc2ccc3c(c2)OCO3)n1CCc1ccccc1
    5%	-6%	-0.2%	1
- CCN(c1ccc(NC(=O)CN2C(=O)NC3(CCOc4ccccc43)C2=O)cc1)C(C)C (centres undefined)
    -15%	-3%	-4.4%	-5
- CN1CCN(c2sc(S(C)(=O)=O)nc2S(=O)(=O)c2ccc(Cl)cc2)CC1
    2%	1%	0.5%	·
- Nc1c(S(=O)(=O)c2ccccc2)csc1C(=O)O
    -3%	7%	4.4%	-7
- COc1ccc(CCN2C(=O)CSC2c2cccc([N+](=O)[O-])c2)cc1OC (centres undefined)
    13%	2%	-1.9%	·
- CCn1c(O)c(C=Nc2ccccc2)sc1=S
    -50%	?	?	-1
- COc1ccccc1CNC(=O)[C@@H]1CCCN1S(=O)(=O)c1ccc(Cl)cc1
    4%	-27%	-0.3%	·
- O=C(O)CCN(CCC(=O)O)c1ccccc1
    -4%	32%	-0.5%	-5
- CN(Cc1ccccc1)Cc1c(O)ccc2ccccc12
    5%	7%	0.6%	·
- CS(=O)(=O)N1CCN(C(=O)Cc2ccc(Br)cc2)CC1
    -6%	8%	7.2%	·
- Cc1ccc(S(=O)(=O)NCc2ccccc2)cc1C(=O)N1CCN(S(=O)(=O)c2ccccc2)CC1
    ·	-6%	-4.0%	·
- CC1=C(c2ccccc2)C=NNCC1=O
    ·	-3%	-1.2%	·
- CCN(c1ccc(N=Cc2c(O)n(Cc3ccc(OC)cc3)c(=O)c3ccccc23)cc1)C(C)C
    3%	?	?	6
- Cc1ccc(C2C(C#N)=C(N)Oc3cc(N)ccc32)cc1 (centres undefined)
    -8%	?	?	·
- COCCCn1c(-c2ccc(Cl)cc2)n[nH]c1=S
    0%	1%	-3.1%	-5
- COc1cccc(CNC(=O)CCNC(=O)N2CCn3c2nc2ccccc23)c1
    -3%	-1%	-3.7%	·
- Cc1ccc(C(=O)N2CCN(S(C)(=O)=O)C2)cc1
    -2%	4%	3.5%	3
- O=C(NCc1ccc(F)cc1)C1CCCN(c2cnccn2)C1 (centres undefined)
    6%	7%	-2.2%	·
- C=CCn1c(-c2ccc(Cl)cc2)c[nH]c1=S
    15%	-9%	0.5%	-2
- CSc1ncccc1C(=O)OCC(=O)Nc1ccc2c(c1)OCO2
    3%	-2%	?	-3

Two compounds drawn at random from those above, as already listed:
Order of results: miR-21 reporter	Rango dissoc inh	Rango-impB inh	GLA inh pH 4.5
- CCN(c1ccc(NC(=O)CN2C(=O)NC3(CCOc4ccccc43)C2=O)cc1)C(C)C (centres undefined)
    -15%	-3%	-4.4%	-5
- Nc1c(S(=O)(=O)c2ccccc2)csc1C(=O)O
    -3%	7%	4.4%	-7

(list continues)
Order of results: miR-21 reporter	Rango dissoc inh	Rango-impB inh	GLA inh pH 4.5
- Cc1ccc(C)c(S(=O)(=O)N2CCN(C(=O)c3ccccc3Cc3ccccc3)CC2)c1
    ·	-12%	0.1%	·
- Nc1nc(NCc2ccco2)nn1-c1ccccc1
    -18%	15%	-4.4%	-12
- NCCCCCC(=O)O
    ·	0%	-1.4%	0&-1&2
- CN(C(=O)COC(=O)/C=C/c1ccc(Cl)c(Cl)c1)c1c(N)n(Cc2ccccc2)c(=O)[nH]c1=O
    ·	-9%	1.2%	·
- O=C(COC(=O)c1cc(S(=O)(=O)N2CCOCC2)ccc1Cl)NCc1ccccc1
    ·	20%	-1.4%	·
- O=C(CNS(=O)(=O)c1ccc(Br)cc1)N1CCN(c2ccc(F)cc2)CC1
    1%	?	0.7%	1
- Cc1ccc(C)c(C(=O)COC(=O)c2cc(Cl)nc3ccccc23)c1
    -2%	7%	-1.4%	-7
- O=C1OC(N2C(=O)CC[C@H]2C(=O)NCC2CCCO2)c2ccccc21 (some centres undefined)
    2%	17%	1.1%	·
- COc1cccc(OCCNc2cc(N3CCOCC3)ccc2[N+](=O)[O-])c1
    -48%	-4%	10%	-6
- COC(=O)c1ccc(COC(=O)C2CC(O)CN2S(=O)(=O)c2ccc([N+](=O)[O-])cc2)cc1 (centres undefined)
    ·	9%	5.6%	·
- O=C(NCc1ccccc1)c1ccc(S(=O)(=O)Nc2cccc(C(F)(F)F)c2)cc1
    21%	-6%	2.7%	0
- Cc1cc(C)c(C#N)c(SCCS(=O)(=O)Cc2ccc(Cl)cc2)n1
    -4%	-12%	-1.1%	-2
- O=C(Nc1ccc(N2CCOCC2)cc1)Nc1cnsn1
    -35%	2%	0.6%	-6
- Cc1cc(C)cc(N(CC(=O)NC2CCCC2)C(=O)CCC(=O)Nc2cc(C)ccn2)c1
    0%	-11%	0.0%	·
- Cc1cc(=O)oc2c(C)c(OC(C)C(=O)Nc3ccc(N4CCC(C)CC4)cc3)ccc12 (centres undefined)
    -2%	-21%	5.4%	·
- CCOC(=O)c1c(-c2ccccc2)csc1NC(=O)c1ccc(S(=O)(=O)N2CCOCC2)cc1
    2%	12%	-4.6%	-5
- COc1ccc2ccccc2c1CN1CCSCC1
    -1%	4%	-1.1%	·
- CN(Cc1cc2ccccc2[nH]c1=O)C(=O)COc1ccccc1
    0%	-3%	0.8%	2
- O=C(CSc1nnc(Cc2cccs2)n1-c1ccccc1)Nc1ccc2c(c1)OCCO2
    16%	13%	1.3%	-6
- CC(C(=O)Nc1cc(Cl)cc(Cl)c1)N1CCCC1 (centres undefined)
    -9%	19%	-0.6%	·
- CCOC(=O)N1CCN(C(=O)c2nn(C)c3c2CSc2ccccc2-3)CC1
    -11%	-7%	-0.2%	·
- Cc1ccc(S(=O)(=O)Nc2ccccc2CNc2cccc(C)n2)cc1
    -11%	1%	-1.6%	3
- COc1ccccc1C(=O)OCC(=O)Nc1ccc(OC(F)F)cc1
    -15%	25%	0.4%	-3
- Cc1cccc2c1cnn2C(=O)CCC(=O)NCC(C)c1ccccc1 (centres undefined)
    0%	-23%	-2.0%	·
- Cc1ccnc(SCCn2c(N3CCOCC3)nc3c2c(=O)[nH]c(=O)n3C)n1
    ·	15%	2.4%	·
- C=CCCN([C@H](CO)Cc1ccccc1)S(=O)(=O)c1ccccc1Br
    ·	15%	0.8%	·
- O=C1[C@H]2[C@@H](c3ccc(F)cc3)N3C(=O)N(c4ccc(C(F)(F)F)cc4)C(=O)[C@@]3(Cc3ccccc3)[C@H]2C(=O)N1C1CCCCC1
    ·	-25%	?	·
- Oc1ccccc1C1OCC2(CO1)COC(c1ccccc1O)OC2 (centres undefined)
    1%	-1%	4.8%	-4
- Cc1cc(C)n(-c2ccc(C(=O)O)cc2[N+](=O)[O-])n1
    -2%	-5%	2.2%	3[21.1 µM]
- CCCS(=O)(=O)N1CCC(C(=O)NCCc2ccccc2)CC1
    -10%	15%	-1.8%	4
- CN(C)CC1CCCCC1OC(=O)/C=C/c1ccc(Cl)cc1Cl (centres undefined)
    0%	8%	-5.5%	1
- CCOC(=O)c1c(C)[nH]c(C(=O)COC(=O)C2CC2C)c1C (centres undefined)
    -71%	-11%	-2.3%	1
- O=C(NCCN1CCN(c2ccccc2)CC1)C1CCN(S(=O)(=O)c2cccs2)CC1
    2%	13%	-1.9%	-5
- O=C(N=Nc1c(O)[nH]c2ccc(F)cc12)c1ccc(NS(=O)(=O)c2cccs2)cc1
    ·	-10%	-3.0%	·

Source: PubChem BioAssay
